rRNA inh HTS: reduced GFP signal of wild-type E. coli, primary screen, bacterial rRNA inhibitor project, GFP/RFP fluorescence, OD600, single point. E. coli WT GFP vs humanized-ribosome RFP mutants, 24 h; active compounds read low; DMSO median 0, no signal -100. GFP signal change (wild-type ribosome), % (test concentration not listed). hit rate 1.6% among 350,000. AID 720706, 2013;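 active means significant combined selectivity score with lowered wild-type GFP, culture density cut under 30%, mutant RFP and density less affected; inactive means any of these conditions unmet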; further: one replicate is shown; some compounds called inactive have numbers as strong as hits
B2AR ag: beta2AR agonists driving receptor internalization, primary screen, cell-based, FAP fluorogen, flow cytometry. response, % (concentration not given with the values). hit rate 0.43% among 340,000. Beta-2 adrenergic receptor (Homo sapiens), P07550. AID 504454, 2011. Am2.2-beta2AR cells; reference of the scale not given here;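 active means response above a set limit, near 3 SD of response in nonfluorescent compounds, cut at about 42% in these data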;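 further: stock transfer was 100 nL into about 11 µL; a reference agonist was the positive control; negative values mostly stem from fluorescent compounds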
E coli growth: E. coli growth inhibition, primary screen, OD600 | Escherichia coli growth, 23 h; active compounds read low | OD600 absorbance (test concentration not listed) | hit rate 0.21% among 330,000 | AID 1053175, 2014;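 active means OD600 absorbance below the run mean of sample wells minus 3.6 SD, in any replicate, cut at about 0.56 in these data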;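 further: stock transfer was 300 nL into about 60 µL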
HNF4A DNA FP: change in binding of human HNF4A to DNA, primary screen, biochemical, fluorescence polarization, FITC-DNA | 1 h | activity change, % at 10 µM | hit rate 0.3% among 360,000 | AID 1224865, 2016; in the data active means activity change above about 30%, passing the limit was not always enough;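 further: controls were the assay level and a saturating level of protein; the project sought stronger binding though the title names inhibitors; some compounds called inactive have numbers as strong as hits; positive values seem to mean higher polarization but the record does not say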
Target sequence (P41235 whole entry, looked up): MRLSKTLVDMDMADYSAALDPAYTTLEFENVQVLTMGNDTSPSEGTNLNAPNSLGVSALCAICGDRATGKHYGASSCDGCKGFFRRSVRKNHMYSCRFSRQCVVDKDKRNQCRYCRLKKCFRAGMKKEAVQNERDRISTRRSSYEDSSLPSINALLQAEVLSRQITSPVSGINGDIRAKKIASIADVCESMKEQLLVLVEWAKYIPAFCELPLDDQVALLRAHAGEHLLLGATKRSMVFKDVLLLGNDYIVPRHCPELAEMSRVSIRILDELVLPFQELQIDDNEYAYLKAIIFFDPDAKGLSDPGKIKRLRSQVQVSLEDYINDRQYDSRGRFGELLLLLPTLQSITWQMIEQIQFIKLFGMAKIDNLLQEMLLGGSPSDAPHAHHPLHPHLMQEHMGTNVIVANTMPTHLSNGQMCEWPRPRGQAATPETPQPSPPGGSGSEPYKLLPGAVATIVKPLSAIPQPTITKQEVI
ALR inh: inhibitors of human ALR sulfhydryl oxidase, primary screen, biochemical, H2O2 detection, HRP-luminol luminescence, single point | hit rate 3.8% among 290,000 | inhibition, % (concentration not given with the values) | FAD-linked sulfhydryl oxidase ALR (Homo sapiens), P55789 | purified ALR, DTT oxidation;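 active means mean and each replicate at 75% or more; inconclusive means only one of the two met; inactive means neither met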;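 further: stock transfer was 7.5 nL into about 7.5 µL; 0% = neutral wells and 100% = wells with inactivated enzyme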
FGF22 binding: binders of human FGF22 protein, primary screen, FGF22 synaptogenesis inhibitor project, biophysical, thermal shift, single point; recombinant FGF22 thermal shift, SYPRO orange fluorescence; percent of sucrose octasulfate shift, DMSO zero; calls only at 9.99 µM; hit rate 1.5% among 340,000;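 active means melting point raised past a set limit in the mean and every replicate; inconclusive means no clear call; three in four hits are not shown here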
Target sequence (Q9HCT0 whole entry, looked up): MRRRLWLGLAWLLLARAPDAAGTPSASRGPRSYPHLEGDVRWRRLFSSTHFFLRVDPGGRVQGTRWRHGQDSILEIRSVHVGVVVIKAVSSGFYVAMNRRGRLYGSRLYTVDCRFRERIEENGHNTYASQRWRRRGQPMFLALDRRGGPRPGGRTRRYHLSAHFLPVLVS
UCH37 DUB inh: inhibitors of human UCH37 deubiquitinase, primary screen, biochemical, Ub-AMC cleavage, fluorescence; hit rate 0.33% among 330,000; inhibition, % (concentration not given with the values); purified proteasome/UCH37; Ubiquitin carboxyl-terminal hydrolase isozyme L5 (Homo sapiens), Q9Y5K5;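 active means mean of two replicates above 20%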;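 further: 0% = compound-free wells with enzyme and 100% = wells lacking proteasome; stock transfer was 100 nL into about 20 µL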
Target sequence (Q9Y5K5 whole entry, looked up): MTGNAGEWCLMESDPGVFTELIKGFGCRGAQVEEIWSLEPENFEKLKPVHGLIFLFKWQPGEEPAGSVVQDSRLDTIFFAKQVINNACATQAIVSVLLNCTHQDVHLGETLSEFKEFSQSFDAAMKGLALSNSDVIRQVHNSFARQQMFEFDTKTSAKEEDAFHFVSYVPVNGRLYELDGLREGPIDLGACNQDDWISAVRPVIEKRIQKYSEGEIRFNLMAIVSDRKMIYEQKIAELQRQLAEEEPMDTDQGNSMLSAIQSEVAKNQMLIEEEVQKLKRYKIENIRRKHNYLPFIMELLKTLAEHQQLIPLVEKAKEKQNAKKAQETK
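assay system = human UCH37 enzyme supplied as purified proteasome complex | amount = proteasome at 0.15 nM in the dispensed enzyme solution | schedule = 30 min compound-proteasome preincubation then 25 min substrate reaction, room temperature | measured by = fluorescence, ex 355 nm, em 460 nm | benchmarks = no-proteasome wells (full inhibition) and compound-free wells (no inhibition)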
rRNA inh HTS OD600: further read-out of rRNA inh HTS, marked with its call; OD600 change, %; measured here: OD600 growth;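 optical density of the mix in the first replicate; 0 = DMSO median and -100 = no signal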
rRNA inh HTS RFP: further read-out of rRNA inh HTS, marked with its call; RFP signal change, %; measured here: RFP humanized mutant strains;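 first replicate; 0 = DMSO median and -100 = no signal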
Numbers without * were called inactive; i = inactive; ? = inconclusive; . = no result given; + = active, no number; & = joins results of further samples. These rows are one share of the data (hit frequency here may not be typical).

Value order: rRNA inh HTS, E coli growth, HNF4A DNA FP, UCH37 DUB inh, B2AR ag, ALR inh, rRNA inh HTS RFP, rRNA inh HTS OD600, FGF22 binding
COc1cccc(C(C)(O)c2nc(-c3csc4ccccc34)cs2)c1 (stereo not drawn)
 : -26, ., -2.5, ., ., ., 35, -54, i
CN(C)S(=O)(=O)c1ccc2c(c1)c(=O)c(C(=O)N1CCOCC1)cn2C
 : 14, 0.75, -1.1, -1.1, 1, ., 0.6, 10, i
O=C(Nc1nnc(SCc2ccc(F)cc2)s1)c1ccc2ncsc2c1
 : 2, 0.74, 3.1, 3.0, -5, ., 3.0, -2, i
CCCCn1nnnc1NCc1cc(OC)c(OC)cc1OC
 : ., 0.71, 2.0, 4.4, 3, -3, ., ., .
COc1ccc(-c2nnc(SCc3ccc(C(=O)O)cc3)n2C)cc1OC
 : 14, 0.62, -3.6, -1.0, -7, -6, 3.7, 4, i
COc1ccccc1NC(=O)Cn1cnc2c(nc3n2CCCCC3)c1=O
 : 7, 0.68, 0.6, 4.5, -3, -4, 0.1, 14, i
CSc1nc2ccc(Cl)cc2[nH]1
 : ., 0.7, 0.9, 4.4, 5, -4, ., ., .
O=C(O)c1ccc(N2C(=O)c3cccc4cccc(c34)C2=O)cc1
 : -14, 0.67, 0.7, -34, 11, -5, -2.4, -16, i
COc1ccc(N(CC(=O)Nc2cccc(C)c2)S(=O)(=O)c2c(C)noc2C)cc1
 : 4, 0.68, -0.7, 6.2, -4, -31, 4.8, -36, i
O=C(NCCCN1CCCC(O)C1)c1cc(COc2ccc(F)cc2F)on1 (stereo not drawn)
 : 5, 0.66, 0.0, -2.8, -3, -27, 1.5, 1, i
Cc1ccc(SCCNC(=O)c2ccc(C)c(S(=O)(=O)Nc3ccccc3C)c2)cc1
 : -17, 0.72, 0.4, 2.3, 7, 2, 8.6, -21, i
Cn1c(C(=O)N2CCCC(C(=O)NCCc3ccccc3)C2)cc2sccc21 (stereo not drawn)
 : ., 0.66, 4.1, 1.3, -5, -6, ., ., .
COc1cc(OC)cc(C(=O)NCC(=O)Nc2ccc(C)c(Cl)c2)c1
 : -6, 0.66, -0.9, 2.1, -4, 3, -7.1, -3, i
Fc1ccc(/C=N/NC(=S)Nc2cccnc2)cc1F
 : -2, ., -0.4, ., -11, 27, -3.4, 6, i
Cn1nc(-c2ccccc2)c2cc(C(=O)O)sc21
 : -6, 0.65, -2.1, -10, 17, -5, -3.3, -14, i
Cc1ccc(NC(=O)CSc2nnc(NC(=O)c3ccc(S(=O)(=O)N4CCOCC4)cc3)s2)cc1
 : ., 0.73, -0.8, -32, -2, -1, ., ., .
Cc1ccc(NC(=O)CCNC(=O)c2ccc(Br)cc2)cc1S(=O)(=O)N1CCCCCC1
 : -5, ., 2.0, ., 5, -42, 2.2, -5, i
CNC[C@@H]1Oc2c(NS(C)(=O)=O)cccc2C(=O)N([C@@H](C)CO)C[C@H]1C
 : 1&6, ., 3.2, 1.6, -4, 6, -1.8&1.8, 6&4, i
O=C(Nc1ccccc1Cl)Nc1ccnn1C1CCN(C(=O)CCN2CCCO2)CC1
 : 0, 0.68, 17, 1.7, 7, -13, -1.1, 1, i
COc1ccc(CCNS(=O)(=O)c2ccc(-n3cnnn3)c(OC)c2)cc1OC
 : -1, ., -3.5, ., -4, -2, -2.9, -5, i
OC(c1ccccc1)c1ccncc1 (stereo not drawn)
 : 10, 0.75, 2.9, 4.1, -3, -11, 0.3, 11, i
CC(C)CNC(=O)CO/N=C/c1ccccc1Cl
 : 1, ., 2.6, ., -2, 19, -0.4, -15, i
COc1ccc(OC)c(Nc2nc(N)nc(CCl)n2)c1
 : -7, 0.62, -1.8, 2.9, 9, 13, 3.0, 7, i
CCN(CC)Cc1cc2[nH]c3c4ccc(Cl)cc4ncc3c2cc1OC
 : 6, 0.67, 3.0, -0.6, 3, ., -5.4, -5, i
O=C(CSc1n[nH]c(-c2ccncc2)n1)Nc1ccc(Cl)cc1
 : 3, 0.63, 0.8, 2.9, 8, 2, -0.3, 4, i
CS(=O)(=O)/C(C#N)=C/c1cccn1S(=O)(=O)c1cccc2ccccc12
 : -17, ., 2.3, ., ., ., 4.0, -10, i
CCOc1ccccc1C(=O)NC1CCN(CC(=O)Nc2cc(OC)ccc2OC)CC1
 : -27, 0.7, 4.4, 0.5, 7, 29, -3.6, -44, i
O=C(CSc1nnc(Cc2ccccc2)o1)Nc1ccccc1
 : -15, 0.69, 5.5, 1.5, -5, -5, 1.6, -19, i
CN1N=C(C(=O)N2CCN(c3ccc([N+](=O)[O-])cc3)CC2)CCC1=O
 : -3, 0.71, -2.1, 13, -2, 7, -5.1, -3, i
Cc1cccc(C(=O)N2CCN(S(=O)(=O)c3ccc4c(c3)OCCCO4)CC2)c1[N+](=O)[O-]
 : -3, 0.69, 6.3, 3.8, 0, 3, -2.9, -11, i
CCOc1ccccc1N(CC(=O)Nc1ccccc1F)S(=O)(=O)c1ccccc1
 : -19*, 0.67, -0.8, 0.9, 8, -12, 2.4*, -13*, i
CC(=O)NCCc1ccc(S(=O)(=O)Nc2ccc(NC(=O)c3ccc(F)cc3)cc2)cc1
 : 6, 0.67, 0.8, 4.0, 7, -4, 1.7, 6, i
CCOC(=O)c1sc(NC(=O)c2cccc(S(=O)(=O)N3CCc4ccccc43)c2)c(C#N)c1C
 : -10, 0.68, 2.6, 0.7, 26, 15, -2.9, -12, i
CCOC(=O)c1c(-c2ccccc2)oc2ccc(OC(C)C(=O)O)cc12 (stereo not drawn)
 : -14, ., -1.7, ., 11, ., 4.5, -8, i
COc1ccc(S(=O)(=O)N2CCCCC2)cc1NC(=O)CSc1ncnc2ccccc12
 : ., 0.73, 4.7, 1.2, -16, -2, ., ., .
CCCn1nc2ccccc2c1P(=N)(N1CCOCC1)N1CCOCC1
 : ., 0.75, -0.2, -2.2, 2, -4, ., ., .
N#CCCNS(=O)(=O)c1ccc(C(=O)OCC(=O)Nc2ccc3c(c2)OCO3)cc1
 : 6, 0.64, -1.9, -0.5, 3, -5, -0.3, 0, i
O=C(CN1CCN(CC(=O)c2ccccc2)CC1)c1ccccc1
 : 3, 0.69, 1.4, 4.5, 12, ., 2.3, 5, .
O=C(c1cccc(Cl)c1)N1CCN(Cc2c[nH]c3ccccc23)CC1
 : 9, 0.72, 1.9, 2.6, -1, 12, 1.3, -1, i
Cn1cccc1CC(=O)N/N=C/c1ccc([N+](=O)[O-])cc1
 : ., ., 5.1, ., -3, 99*, ., ., i
Nc1ccc(S(=O)(=O)Nc2nc(-c3ccccc3)cc(-c3ccccc3)n2)cc1
 : -1, 0.67, -0.3, 3.8, 11, 0, 0.1, -12, i
CCN(CC(=O)NCC(=O)Nc1ccc(Br)cc1C)Cc1ccccc1
 : -5, 0.63, -3.2, 4.2, 6, -22, 0.4, -8, i
CCC(C)[C@H](NC(=O)[C@H](Cc1ccccc1)n1c(=O)[nH]c2ccccc2c1=O)C(=O)NCC1CCC(C(=O)O)CC1 (stereo partly drawn)
 : ., 0.7, 0.2, 2.1, 0, -6, ., ., i
COc1ccc(NC(=O)C2CCN(Cc3cnn(-c4ccccc4)c3-n3cccc3)CC2)cc1OC
 : ., ., -1.4, 0.1, 1, -68, ., ., .
Cc1cccnc1NC(=O)/C=C/c1ccc2c(c1)OCO2
 : ., 0.66, -1.2, -35, 0, -7, ., ., .
COc1cc(/C=N/NC(=O)CCn2c3ccccc3c3ccccc32)ccc1O
 : -24, ., -3.0, ., 6, 70, 3.5, 28, +
O=C(NCCCn1ccnc1)c1cccc(S(=O)(=O)NCc2ccccc2)c1
 : 22, 0.7, 2.2, 0.5, 2, -4, 0.7, 22, i
N#Cc1c2n(c3c(=O)[nH]cnc13)CCCC2
 : ., 0.62, -2.1, -0.8, 1, 0, ., ., .
COc1ccc(S(=O)(=O)N(C)c2ccc(C(=O)N3CCN(C)CC3)cc2)cc1
 : 4, ., -4.0, ., 15, 2, -5.2, 4, i
O=C(Cn1c(=O)sc2ccccc21)Nc1ccccc1
 : ., 0.67, 2.0, -1.9, 2, -6, ., ., .
CC(=O)Nc1ccc(S(=O)(=O)NCCC(=O)N2CCN(C(c3ccccc3)c3ccccc3)CC2)cc1
 : -12, 0.68, -7.9, 3.7, 13, 8, 1.0, -21, i
COc1ccc(NC(=O)COC(=O)CCc2nc3ccccc3c(=O)[nH]2)c(OC)c1
 : 9, ., -3.1, ., 3, 3, -1.5, 9, i
COC(=O)Cn1nc(-c2ccc(C)c(S(=O)(=O)N(C)C)c2)c2ccccc2c1=O
 : ., 0.69, -5.0, 1.0, 8, 1, ., ., .
CC(=O)N1CCN(C(=O)CNC(=O)c2ccc(Br)o2)CC1
 : 13, 0.72, 4.6, 3.4, 0, -10, 0.5, 7, i
CCOC(=O)c1ccc(NC(=O)CCNS(=O)(=O)c2cc(Br)cnc2N)cc1
 : -17, 0.64, 7.0, -1.7, -6, -2, -3.3, -20, i
O=c1cc(-c2ccc(O)cc2)oc2cc(O)c(C3OC(CO)C(O)C(O)C3O)c(O)c12 (stereo not drawn)
 : ., 0.74, -10, -22, 0, ?, ., ., i
COc1cccc(-c2cc3nc(-c4ccccc4)cc(N4CCN(C(=O)c5ccoc5)CC4)n3n2)c1
 : 8, ., 5.1, ., ., ., 11, 38, i
C=CCC[C@H](Cc1ccc(F)cc1)C(=O)OC[C@H](C)NC(=O)[C@H](CC=C)CC(=O)N(CCO)Cc1ccccc1
 : -17, ., -0.1, 4.6, 5, 2, 23, -22, i
Cc1noc(C)c1S(=O)(=O)N1CCCC(C(=O)NCCc2ccc(Cl)cc2)C1 (stereo not drawn)
 : ., 0.71, 2.1, -0.5, -14, -16, ., ., .
COc1ccc(C2Nc3ccc(Br)cc3C(c3ccccc3)N2CC(=O)O)cc1 (stereo not drawn)
 : -12, 0.69, 0.2, 3.2, 6, 14, -2.5, -1, i

The listing continues.
Value order: rRNA inh HTS, E coli growth, HNF4A DNA FP, UCH37 DUB inh, B2AR ag, ALR inh, rRNA inh HTS RFP, rRNA inh HTS OD600, FGF22 binding
CC1Oc2ccccc2N(CC(=O)N2CCc3ccccc32)C1=O (stereo not drawn)
 : 4, 0.68, 0.5, 2.5, 3, -2, -2.5, -2, .
Cc1nnsc1NC(=O)OCC(C)C
 : ., 0.73, 0.3, -2.6, -4, ., ., ., .
CC1=C(C(N)=O)C(c2ccccc2[N+](=O)[O-])n2ncnc2N1 (stereo not drawn)
 : -6, 0.64, -1.8, 1.5, 9, -11, -17, -11, i
CCCOc1ccc(Cc2c(Cl)nc(SC)nc2NC)cc1
 : -20, 0.65, -1.9, 1.6, -13, -3, 2.6, -21, i
O=C(NCc1ccncc1)Nc1ccc(Cc2ccc(NC(=O)NCc3ccncc3)cc2)cc1
 : 4, ., 1.0, ., ., ., 25, 8, i

Exported as a markdown table: 2 of the compounds above.
| SMILES | rRNA inh HTS | E coli growth | HNF4A DNA FP | UCH37 DUB inh | B2AR ag | ALR inh | rRNA inh HTS RFP | rRNA inh HTS OD600 | FGF22 binding |
| --- | --- | --- | --- | --- | --- | --- | --- | --- | --- |
| CC1Oc2ccccc2N(CC(=O)N2CCc3ccccc32)C1=O (stereo not drawn) | 4 | 0.68 | 0.5 | 2.5 | 3 | -2 | -2.5 | -2 | . |
| Cc1nnsc1NC(=O)OCC(C)C | . | 0.73 | 0.3 | -2.6 | -4 | . | . | . | . |

Screens as filed in PubChem.
